StopGo RLuc – Primary qHTS Assay for Foot and Mouth Disease Virus Antivirals against NCGC Sytravon and CBC Compound Libraries: Renilla Luciferase Signal. 0.32% of 120,000 active. AID 1745857, 2022. Potency, µM (top dose mostly 57.5 µM), for the others: at the top dose signal change, negative = less light. HEK cells with a luciferase reporter of 2A StopGo recoding; active means well fitted falling curve with a large enough effect; inconclusive means small, poorly fitted or top-dose-only effect; inactive means no such curve, though single readings can be large or run the other way; note: nearly all actives have a fitted effect of over 55% in size; overnight with compound
2A firefly – Primary qHTS Assay for Foot and Mouth Disease Virus Antivirals against NCGC Sytravon and CBC Compound Libraries: Firefly Luciferase Signal | HEK cells with a luciferase reporter of 2A StopGo recoding | Potency, µM (doses to about 57.5 µM), inactives show top-dose signal change, negative = less light | 0.23% of 120,000 active; active = well fitted falling curve with a large enough effect; inconclusive = small, poorly fitted or top-dose-only effect; inactive = no such curve, though single readings can be large or run the other way; note: nearly all actives have a fitted effect of over 60% in size; overnight with compound
* = called active by the depositor; ? = inconclusive; & = joins results of further samples; [ ] = dose if it differs, or a comment. % is set by controls: 0 for no effect and ±100 for the full control effect; potency is the fitted concentration of half-maximal effect. Only part of the results is shown, so the mix of outcomes need not match the whole.

SMILES | StopGo RLuc | 2A firefly
COc1ccc(CCN2CC(C(=O)NCCc3ccc(C)cc3)CC2=O)cc1OC (centres undefined) | -19% | -4%
CCOC(=O)c1ccc(NC(=O)CSc2cc(=O)n(CC)c3ccccc23)cc1 | 0% | -2%
O=C(CCn1c(=O)c2cccn2c2cccnc21)NCc1cccc(Br)c1 | -6% | -12%
COCCNC(=O)c1cccc(Nc2nc3ccccc3n3nnnc23)c1 | 15% | 4%
COc1ccc(S(=O)(=O)N2CCCCC2)cc1NC(=O)c1nn(CC(C)C)c(=O)c2ccccc12 | -3% | -1%
COc1ccccc1CNC(=O)CSc1nc2nc(C)c(Cc3ccccc3C)c(C)n2n1 | 12% | -15%
COc1nn(C)c2nc(C)c(CCC(=O)NC(C)C)c(C)c12 | -12% | -1%
Cc1ccc(C)c(-n2nnc(C(=O)NC3CCS(=O)(=O)C3)c2C)c1 (centres undefined) | 2% | 10%
COc1ccc(C)cc1NC(=O)c1cc(=O)[nH]c2ccccc12 | 12% | 16%
CC(C)CCn1c(SCc2ccc(F)cc2Cl)nc2ccsc2c1=O | -11% | -18%
O=C(NCCc1ccccn1)c1cccc(NS(=O)(=O)c2ccc3c(c2)OCCO3)c1 | 223%[activator] | 6%
CCOc1ccccc1NC(=O)N(Cc1ccc(C)o1)C1CCN(C(C)=O)CC1 | 2% | -17%
CN(CC(=O)Nc1ccc(Cl)c(Cl)c1)CC(=O)N(CCC#N)c1ccccc1F | ? | ?
CCc1ccc(NC(=O)C2CCN(S(=O)(=O)c3c(C)noc3C)CC2)cc1 | -9% | -29%
Cc1ccc(-c2nn(-c3cccc([N+](=O)[O-])c3)c3c2cnc2ccc(F)cc23)cc1 | -15% | -17%
COc1cc2[nH]c(=O)n(-c3ccc(C)cc3)c(=O)c2cc1OC | -2% | -3%
COC(=O)c1ccc(C(=O)OC)c(NC(=O)c2c(-c3ccccc3)noc2C)c1 | -4% | 13%
CC(C(=O)Nc1ccccc1C(F)(F)F)n1nc(-c2ccccc2)c2c(c1=O)CCCC2 (centres undefined) | 1% | -6%
CCCc1cc(N2CCN(c3ccccc3)CC2)n2cnnc2n1 | ? | ?
COc1cc(NC(=O)CSc2nccn2C)cc(OC)c1OC | 16% | 24%
O=C(COc1ccccc1)Nc1nnc(SCc2cc(=O)c3ccccc3[nH]2)s1 | ? | ?
CC(C)N(Cc1cnn(C)c1)S(=O)(=O)c1ccc(Cl)cc1 | -3% | -4%
COc1ccc(C2N=C(N)Nc3nc4ccccc4n32)c(OC)c1OC (centres undefined) | -7% | -9%
O=C(CCC(=O)OCc1ccc(Br)cc1)Nc1ccc2c(c1)oc1ccccc12 | -2% | 120%[activator]
Cc1ccc2c(c1)N(C(=O)CCC(=O)NCc1cccc(F)c1)CC(C)O2 (centres undefined) | -5% | -6%
CCC1CN(C(=O)Nc2ccc(C)c(F)c2)c2ccccc2S1 (centres undefined) | 51%[activator] | 29%
COC(=O)c1ccc(CSc2nc3c([nH]c4ccccc43)c(=O)n2-c2cc(C)cc(C)c2)o1 | -9% | -21%
CCCOc1ccccc1C(=O)Nc1ccc(OCCC)c2ncccc12 | 7% | -1%
Cc1cc(=O)oc2cc(OC(C)C(=O)NCc3cccnc3)ccc12 (centres undefined) | -1% | 2%
Cc1cc(C)c(C(=O)COC(=O)c2cccc(C)c2C)c(C)c1 | -2% | 0%
Cc1nc2c(c(=O)[nH]1)C(c1cc(F)cc(F)c1)CC(=O)N2 (centres undefined) | 13% | 20%
COc1cc(OC)c(OC)cc1CNC(=O)c1cccc(S(=O)(=O)N2CCc3ccccc3C2)c1 | ? | ?
COc1ccc(C)cc1NC(=O)C(C)Oc1ccc(C#N)cc1OC (centres undefined) | 18% | 10%
CCNc1oc(-c2ccc(S(=O)(=O)N(CC)CC)cc2)nc1C#N | 74%[activator] | 4%
CCNc1ccc(-c2nc(-c3ccccn3)no2)cc1[N+](=O)[O-] | 15% | 140%[activator]
CC(=O)c1ccc(NC(=O)C(c2ccccc2)c2ccccc2)cc1 | 2% | 111%[activator]
O=C(Nc1ccc(Cl)cc1)Nc1nnc(COc2ccc(Cl)cc2)s1 | 28% | 128%[activator]
Cc1ccccc1OC(=O)c1ccc(-c2ccccc2)cc1 | -9% | ?
Cc1nc2cccnc2n1-c1cccc(C(=O)NCCc2ccc(S(N)(=O)=O)cc2)c1 | -2% | -5%
CCOc1ccc(CC(=O)NNC(=S)NCCOC)cc1OCC | 6% | 3%
CCCC(=O)N1CC(=O)Nc2ccc(Cl)cc2C1c1ccccc1 (centres undefined) | 6% | -7%
COc1cc(C#N)ccc1OCCOc1ccccc1C(C)=O | 14% | 25%
O=c1c2cnc(N3CCCCC3)nc2ccn1-c1ccccc1F | -23% | 0%
CCOc1ccc(C(=O)Nc2c(C(=O)c3ccc(OC)cc3)oc3ccccc23)cc1 | 0% | -2%
CCCc1cc(N2CCN(c3ccccc3F)CC2)n2cnnc2n1 | ? | ?
COc1ccc(-c2nn(-c3ccccc3)cc2C(=O)Nc2ccccc2OC)cc1 | 10% | 5%
Cc1cccc(C(C)C)c1NC(=O)Cn1c(=O)oc2cc(S(=O)(=O)N3CCCC3)ccc21 | -12% | 10%
CCCCn1nc(C(=O)Nc2ncc(C)s2)c2ccccc2c1=O | -3% | -8%
CCC(=O)N1c2ccccc2CC1C(=O)NCCN1CCN(c2cccc(C)c2C)CC1 (centres undefined) | -24% | -20%
O=C(NCCc1ccccc1F)c1ccncc1 | -5% | 0%

5 compounds picked at random from the list so far, as already listed:
SMILES | StopGo RLuc | 2A firefly
CCNc1oc(-c2ccc(S(=O)(=O)N(CC)CC)cc2)nc1C#N | 74%[activator] | 4%
COc1cc2[nH]c(=O)n(-c3ccc(C)cc3)c(=O)c2cc1OC | -2% | -3%
COc1cc(NC(=O)CSc2nccn2C)cc(OC)c1OC | 16% | 24%
Cc1ccc2c(c1)N(C(=O)CCC(=O)NCc1cccc(F)c1)CC(C)O2 (centres undefined) | -5% | -6%
O=C(NCCc1ccccn1)c1cccc(NS(=O)(=O)c2ccc3c(c2)OCCO3)c1 | 223%[activator] | 6%

The listing continues.
SMILES | StopGo RLuc | 2A firefly
CC(C)OCCCn1c(SCC(=O)c2ccccc2)nc2c(sc3ccccc32)c1=O | -7% | -21%
Cc1cc(C)cc(NC(=O)c2nc3ccccc3nc2N2CCN(C)CC2)c1 | -9% | -7%
N#Cc1nc(/C=C/c2ccccc2)oc1N1CCN(C(=O)c2ccco2)CC1 | -12% | -4%
COc1ccccc1NC(=O)c1cc(C2CC2)nc2c1c(C)nn2-c1ccc(C)cc1 | -2% | -8%
CS(=O)(=O)NCCc1ccc(C(=O)CSc2ccc(F)cc2)s1 | 4% | 69%[activator]
CCN(CC)c1ccc(NC(=O)Cn2c3ncccc3c(=O)n2-c2ccccc2)c(C)c1 | -1% | -23%
CC(C)C(=O)Nc1ccc(Br)c(Cl)c1 | 0% | 0%
O=C(COC(=O)c1cnc2ccccc2n1)NC12CC3CC(CC(C3)C1)C2 | -16% | 15%
C(=Nc1ccccc1)c1ccc(-c2cccs2)s1 | 8.9µM* | ?
Cc1ccc(NC2(c3nnnn3-c3cccc(C)c3)CCCC2)cc1 | 1% | 18%
O=C(NCCSCc1cccs1)C1CCC1 | -4% | 1%
CCOC(=O)c1ccc(N2C(=O)C(O)(C(F)(F)F)C3=C2CC(C)(C)CC3=O)cc1 (centres undefined) | 60%[activator] | 0%
Cc1ccccc1OCC(=O)Nc1ccccc1C(=O)OCc1cc(=O)n2nc(C3CC3)sc2n1 | 1% | 2%
CCc1ccc(C(=O)N(Cc2ccco2)C2CC2)o1 | -1% | 7%
CCCOC(=O)c1ccc(NC(=O)CSc2nc(=O)[nH]nc2C)cc1 | -4% | 58%[activator]
COc1cccc(CNC(=O)CN(C)S(=O)(=O)c2ccc3[nH]c4c(c3c2)CCCC4)c1 | 23% | -18%
COc1ccc(C(NC(=O)c2cccc(Cl)c2)NC(=O)c2cccc(Cl)c2)cc1 | 51%[activator] | -3%
Cc1ccc(NC(=O)N2CCSc3ncccc32)cc1Cl | -26% | 32%[activator]
C/C(=C(\CCOP(=O)(O)O)SC(=O)c1ccccc1)N(C=O)Cc1cnc(C)nc1N | 3%[5.77 µM] | 0%[5.23 µM]
COc1cc(SC)ccc1C(=O)OCC(=O)NC(=O)NCc1ccco1 | -19% | -15%
COc1ccc(-c2c(C)oc3cc(OS(C)(=O)=O)ccc3c2=O)cc1 | ? | ?
O=C(NCC(c1cccnc1)N1CCN(Cc2ccccc2)CC1)C(=O)Nc1ccc(F)cc1 (centres undefined) | -7% | 63%[activator]
CCc1oc2ccccc2c1/C=C/C(=O)NC1CCCC1 | 23% | 23%
COc1ccccc1OCc1nc(C#N)c(NCc2ccc3c(c2)OCO3)o1 | 5% | 10%
CCOc1ccc(-c2nc(N)nc(C)c2-c2ccc(OC)c(OC)c2)c(O)c1 | 6% | 7%
CCCCOCCCNC(=O)N[C@H](C(=O)O)C(C)CC (some centres undefined) | 6% | 1%
CCc1ccc(OCC(O)Cn2c(NCCN(CC)CC)nc3c2c(=O)[nH]c(=O)n3C)cc1 (centres undefined) | -7% | -8%
Cc1cc(C)c2oc(C(=O)N(Cc3cccs3)c3ccccn3)cc(=O)c2c1 | 44%[activator] | -7%
Cc1ccc(-c2cnc(CCC(=O)N3CCN(CC(=O)Nc4cccc(F)c4)CC3)o2)cc1 | ? | -9%
CNC(=O)C1CCN(C(C)C(=O)NCc2ccccc2Cl)CC1 (centres undefined) | 0% | 2%
CC1CCN(C(=O)Cn2ncc3c4ccccc4n(Cc4ccc(Cl)cc4)c3c2=O)CC1 | -7% | -6%
CC(C)c1ccccc1NC(=O)C(Cc1c[nH]c2ccccc12)NC(=O)OC(C)(C)C (centres undefined) | 56%[activator] | -13%
O=C(CCCn1c(=O)oc2ccccc21)Nc1nc2ccccc2s1 | 19% | 142%[activator]
Cc1c(Cl)cccc1-n1ncc(C(=O)NC2CCCC2)c1C1CCN(C(=O)OC(C)(C)C)CC1 | 4% | -14%
COc1ccc(C(=O)OCc2nc(-c3ccc(F)cc3)no2)cc1S(=O)(=O)N1CCCCCC1 | -7% | -3%
O=C(CN1C(=O)NC2(CCCC2)C1=O)Nc1cc(Cl)cc2cccnc12 | 11% | 9%
O=c1cc(CN2CCN(Cc3ccccc3)CC2)c2cc(O)c(-c3ccccc3)cc2o1 | -6%&-16% | 4%&-8%
Fc1ccc(CSc2ccc(-c3cccs3)nn2)cc1 | -9% | 131%[activator]
COc1ccc(OC(=O)c2cccc(OC)c2)cc1 | -4% | 16%
CCOc1ccccc1NC(=O)c1cc2c(=O)oc3ccccc3c2s1 | -1% | 1%
O=C(NCc1coc(-c2cccs2)n1)c1ccc(F)cc1F | 17% | 48%[activator]
CCOc1ccc(NC(=O)c2cc(S(=O)(=O)N3CCCC3)c[nH]2)cc1 | 89%[activator] | 2%
COc1ccc(C(=O)NCc2ccc3c(c2)CCN3C(=O)c2cccc(C)c2)cc1OC | 11% | -17%
CCOC(=O)c1[nH]c(C)c(CCC(=O)NC(C)c2ccccc2)c1C (centres undefined) | -3% | -4%
Cc1ccc(N(C(=O)c2cccc(C)c2)S(=O)(=O)c2ccc(Cl)cc2)cc1 | 69%[activator] | -28%
COc1cc(C)cc2oc(=O)c(CC(=O)N3CCN(C(=O)C4COc5ccccc5O4)CC3)c(C)c12 (centres undefined) | -17% | -14%
Clc1ccccc1-c1nc(-c2ccncc2)no1 | 6% | 108%[activator]
CCc1nnc(SCc2nc(-c3ccccc3Cl)oc2C)c2cc3sc(C)cc3n12 | -8% | -3%
Cc1ccc(C)c(C(=O)Cn2nc(C(=O)O)c3ccccc3c2=O)c1 | 6% | 12%
O=C(Nc1ccc2nc(SCCOc3ccccc3Cl)sc2c1)c1ccc2c(c1)OCO2 | -8% | 1%

The list continues.
SMILES | StopGo RLuc | 2A firefly
O=C(c1cc(F)ccc1F)N(C1CCCC1)C1CC1 | 5% | -9%
Cc1ccc(/C=C/c2onc(C)c2S(=O)(=O)N2CCC(C(=O)NCc3ccc(Cl)cc3)CC2)cc1 | -10% | -5%
Cc1cc(Cl)ccc1Nc1nc(N)c(C(=O)c2ccc(F)cc2)s1 | -7% | -1%
CSc1nnc(NC(=O)c2cc(=O)c3ccccc3o2)s1 | 0% | 143%[activator]
COCCn1cnc2c1c(=O)n(CC(=O)Nc1c(C)cc(C)cc1C)c(=O)n2Cc1ccccc1 | -12% | -10%
CCCCN(CC)CCNC(=O)c1cn(C)c(=O)c2c1c1ccccc1n2C | 1% | -9%
CCOc1cccc2sc(N(Cc3cccnc3)C(=O)C3=COCCO3)nc12 | 15% | 0%
CCOC(=O)c1sc(Nc2ccccc2C)nc1C | 25% | 159%[activator]
Cc1ccc(-c2cc(C(=O)N3CCN(c4cccc(C(F)(F)F)c4)CC3)c3ccccc3n2)s1 | 39%[activator] | 65%[activator]
Cc1cc2oc(=O)cc(CN3CCc4ccccc43)c2cc1C | 21% | 24%
COc1ccc2cnn(CC(=O)Nc3cccc(Br)c3)c(=O)c2c1OC | -4% | -1%
COc1ccc(CNc2nc(-c3ccc(Cl)cc3)nn2C(=O)c2ccccc2)cc1 | -5% | -4%
Cc1ccc2c(COC(=O)c3n[nH]c4ccccc34)cc(=O)oc2c1C | -2% | 0%
CCn1nc(C)c2c(-c3ccccc3)cc(=O)n(C(C)C(=O)NCCc3ccc(Cl)cc3)c21 (centres undefined) | -21% | ?
CCc1ccc(CNC(=O)c2cnccn2)s1 | 6% | 0%
